FGF22 binding: shifts melting point of recombinant human FGF22; AID 651658; recombinant FGF22 thermal shift, SYPRO orange fluorescence; percent of sucrose octasulfate shift, DMSO zero; Q9HCT0; calls only at 9.99 µM; 1.5% of 340,000 active;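 active = melting point raised past a set limit in the mean and every replicate; three in four hits are not shown here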
Target sequence (Q9HCT0 whole entry, looked up): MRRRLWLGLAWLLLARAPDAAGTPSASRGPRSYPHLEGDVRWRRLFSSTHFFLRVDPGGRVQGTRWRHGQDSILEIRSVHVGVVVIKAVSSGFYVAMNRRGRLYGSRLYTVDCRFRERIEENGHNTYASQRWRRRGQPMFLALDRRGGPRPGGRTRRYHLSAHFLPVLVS
rRNA inh HTS: selective bacterial rRNA inhibition in E. coli. E. coli WT GFP vs humanized-ribosome RFP mutants, fluorescence, 24 h; active compounds read low; DMSO median 0, no signal -100. GFP signal change (wild-type ribosome), % (concentration not given with the values). 1.6% of 350,000 active. AID 720706;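 active = significant combined selectivity score with lowered wild-type GFP, culture density cut under 30%, mutant RFP and density less affected; inactive = any of these conditions unmet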; note: one replicate is shown; some compounds called inactive have numbers as strong as hits
rRNA inh HTS OD600: further read-out of rRNA inh HTS, marked with its call; OD600 change, %; measured here: OD600 growth;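 optical density of the mix in the first replicate; 0 = DMSO median and -100 = no signal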
rRNA inh HTS RFP: further read-out of rRNA inh HTS, marked with its call; RFP signal change, %; measured here: RFP humanized mutant strains;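 first replicate; 0 = DMSO median and -100 = no signal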
Numbers without * were called inactive; i = inactive. An excerpt; count on the stated rates, not on these rows.

| FGF22 binding | rRNA inh HTS | rRNA inh HTS OD600 | rRNA inh HTS RFP | structure |
| --- | --- | --- | --- | --- |
| i | 0 | 3 | 0.5 | COc1ccc(CN(C)C[C@@H]2Oc3ccc(N(C)C)cc3CC(=O)N([C@@H](C)CO)C[C@@H]2C)cc1 |
| i | -1 | 2 | -0.6 | COc1ccccc1S(=O)(=O)N[C@@H]1CC[C@H](CCNC(=O)C2CCCC2)O[C@@H]1CO |
| i | 1 | 4 | 0.1 | Cc1noc(C)c1S(=O)(=O)Nc1ccc2c(c1)C(=O)N([C@H](C)CO)C[C@@H](C)[C@@H](CN(C)Cc1ccc(Cl)c(Cl)c1)OCCCC[C@H](C)O2 |
| i | -1 | 0 | 0.1 | CNC[C@@H]1Oc2cc(C#C[C@H](C)O)ccc2S(=O)(=O)N([C@H](C)CO)C[C@H]1C |
| i | 3 | 8 | 0.2 | CC(C)NC(=O)N[C@H]1CC[C@H](CCNC(=O)C2CCCC2)O[C@@H]1CO |
| i | -1 | 1 | -2.2 | C[C@H](CO)N1C[C@H](C)[C@@H](CN(C)Cc2cccc(C(=O)O)c2)OCc2cn(nn2)CCCC1=O |
| i | -5 | -6 | -0.6 | C[C@H](CO)N1C[C@H](C)[C@@H](CN(C)C(=O)c2ccccc2)OCCCC[C@H](C)Oc2ccc(NC(=O)c3ccccc3)cc2C1=O |
| i | -6 | -4 | -0.4 | C[C@H](CO)N1C[C@H](C)[C@H](CN(C)C(=O)Nc2ccc(F)cc2)Oc2c(NC(=O)c3nc4ccccc4s3)cccc2C1=O |
| i | 4 | 17 | -0.9 | C[C@H](CO)N1C[C@H](C)[C@@H](CN(C)C)Oc2ncc(C#Cc3ccccc3F)cc2C1=O |
| i | -13 | -17 | 32 | COc1ccc(CN(C)C[C@H]2OCCCC[C@H](C)Oc3ccc(NC(=O)Nc4ccc(F)cc4)cc3C(=O)N([C@H](C)CO)C[C@H]2C)cc1 |
| i | 8 | 17 | 7.0 | Cc1ccc(-c2cnc3c(c2)C(=O)N([C@@H](C)CO)C[C@@H](C)[C@@H](CN(C)C(=O)Cc2ccncc2)O3)cc1 |
| i | 4 | 6 | -1.8 | OC[C@@H]1[C@@H](c2ccccc2)C2(CN(CCC(F)(F)F)C2)N1Cc1cccnc1 |
| i | -5 | -6 | 1.4 | C[C@H](CO)N1C[C@H](C)[C@@H](CN(C)C(=O)Nc2ccc(F)cc2)OCCCC[C@H](C)Oc2ccc(NS(=O)(=O)c3ccccc3)cc2C1=O |
| i | 2 | 4 | 2.7 | CC(=O)C1=C(C)N(Cc2ccc(Br)cc2)C(=S)NC1c1cccc(Br)c1 (stereo not drawn) |
| i | 2 | -2 | -0.5 | CO[C@@H]1CN(C)C(=O)c2cc(NC(=O)Nc3ccccc3)ccc2OC[C@@H](C)N(C(=O)CN(C)C)C[C@H]1C |
| i | -3 | -10 | 20 | Cc1ccc(S(=O)(=O)N[C@@H]2C=C[C@H](CC(=O)N3CCN(c4ccccc4)CC3)O[C@@H]2CO)cc1 |
| i | 0 | -4 | -1.7 | C[C@@H]1CN([C@H](C)CO)C(=O)c2cc(NC(=O)NC3CCCCC3)ccc2O[C@@H]1CN(C)C(=O)NC1CCCCC1 |
| i | 4 | 12 | -2.5 | CNC[C@@H]1Oc2c(NS(=O)(=O)c3cccs3)cccc2C(=O)N([C@@H](C)CO)C[C@H]1C |
| i | 4 | 7 | 2.3 | CN(C)C(=O)C[C@@H]1CC[C@@H]2[C@H](COC[C@@H](O)CN2CC2CCCCC2)O1 |
| i | 0 | 3 | 0.8 | CCCC(O)C#Cc1cnc2c(c1)C(=O)N([C@H](C)CO)C[C@H](C)[C@H](CN(C)S(=O)(=O)c1ccc(C)cc1)O2 (stereo partly drawn) |
| i | -2 | 0 | -2.3 | CCOC(=O)C1=CCN(S(=O)(=O)c2ccc([N+](=O)[O-])cc2)C1c1ccc(C)cc1 (stereo not drawn) |
| i | 6 | 2 | -1.2 | CN(C)CCCNC(=O)C[C@H]1CC[C@@H]2[C@H](COc3ccc(NC(=O)c4ccccc4F)cc3C(=O)N2C)O1 |
| i | 1 | 3 | 0.4 | Cc1noc(C)c1NC(=O)N(C)C[C@H]1OCCCC[C@@H](C)Oc2ccc(NS(=O)(=O)c3ccc(F)cc3)cc2C(=O)N([C@H](C)CO)C[C@@H]1C |
| i | -8 | -23 | 0.6 | O=C(C[C@H]1C=C[C@@H](NC(=O)Nc2cccc(F)c2)[C@@H](CO)O1)NCC1CCCCC1 |
| i | 4 | 7 | -1.9 | C[C@H]1CN([C@@H](C)CO)C(=O)c2cccc(NS(=O)(=O)c3ccccc3)c2O[C@H]1CN(C)Cc1ccc(C(=O)O)cc1 |
| i | 0 | -9 | -2.3 | CCC(=O)N1CC(=O)N2[C@H](CO)[C@H](c3ccc(C#Cc4cccnc4)cc3)[C@@H]2C1 |
| i | -1 | 0 | 1.7 | O=C(N[C@@H]1CC[C@H](CCNS(=O)(=O)c2cccc(Cl)c2)O[C@@H]1CO)c1ccc(F)cc1 |
| i | -3 | -9 | 0.9 | C[C@H]1CCCCO[C@H](CN(C)C(=O)Cc2ccccc2)[C@@H](C)CN([C@@H](C)CO)C(=O)c2cc(NS(=O)(=O)c3ccc(F)cc3)ccc2O1 |
| i | 2 | -2 | -0.6 | O=C(C[C@@H]1C=C[C@H](NC(=O)C2CC2)[C@@H](CO)O1)NCc1ccncc1 |
| i | -2 | -2 | 13 | C[C@@H]1CN([C@H](C)CO)C(=O)c2cc(NC(=O)Nc3cccc4ccccc34)ccc2O[C@H]1CN(C)Cc1ccc2c(c1)OCO2 |
| i | 7 | 9 | -0.6 | C[C@@H]1CN([C@H](C)CO)C(=O)c2cccc(NC(=O)c3ccncc3)c2O[C@@H]1CN(C)S(=O)(=O)c1cccs1 |
| i | -8 | -17 | 4.1 | CCC(=O)N1C[C@@H](C)[C@@H](OC)CN(C)C(=O)c2ccc(NC(=O)Nc3ccc(Cl)cc3)cc2OC[C@H]1C |
| i | 3 | 16 | -0.2 | COc1ccc2c3c(n(C)c2c1)[C@@H](CO)N(S(C)(=O)=O)CC31CCN(CC2CCCCC2)CC1 |
| i | 2 | 6 | -2.8 | CC(C)NC(=O)N(C)C[C@@H]1Oc2ccc(NS(=O)(=O)c3cn(C)cn3)cc2C(=O)N([C@H](C)CO)C[C@@H]1C |
| i | 0 | 2 | -2.3 | Cc1ccc(S(=O)(=O)N(C)C[C@H]2Oc3c(NC(=O)c4cc(C)nn4C)cccc3C(=O)N([C@@H](C)CO)C[C@@H]2C)cc1 |
| i | -5 | 7 | 0.7 | C[C@H]1CN([C@@H](C)CO)C(=O)c2cc(NC(=O)C3CCCCC3)ccc2O[C@@H]1CN(C)Cc1ccc(-c2ccccc2)cc1 |
| i | -1 | 9 | -1.1 | COC(=O)C[C@@H]1C[C@@H]2c3cc(NC(=O)CN(C)C)ccc3O[C@@H]2[C@@H](CO)O1 |
| i | 3 | -3 | -0.9 | C[C@@H]1CCCCO[C@@H](CN(C)S(=O)(=O)c2cccs2)[C@@H](C)CN([C@H](C)CO)C(=O)c2cc(NC(=O)CCC(F)(F)F)ccc2O1 |
| i | 2 | -4 | -2.3 | CC(=O)N[C@@H]1C=C[C@H](CC(=O)NCc2ccc(Cl)cc2)O[C@H]1CO |
| i | 1 | 5 | -1.3 | CN1CCN(C(=O)C[C@H]2C[C@H]3c4cc(NC(=O)Cc5ccncc5)ccc4O[C@H]3[C@H](CO)O2)CC1 |
| i | 4 | 2 | 0.7 | CN(C)CCCNC(=O)C[C@@H]1C=C[C@H](NC(=O)c2ccccc2F)[C@H](CO)O1 |
| i | 6 | 19 | 0.0 | COc1ccc(C#Cc2ccc3c(c2)[C@@H]2[C@@H](CCN2S(=O)(=O)c2cccc(OC)c2)[C@@H](CO)N3)cc1 |
| i | -7 | -1 | -3.4 | C[C@@H]1CCCCO[C@@H](CN(C)Cc2ccc(C(F)(F)F)cc2)[C@H](C)CN([C@H](C)CO)C(=O)c2cc(NC(=O)Nc3ccc(C(F)(F)F)cc3)ccc2O1 |
| i | -8 | -5 | 0.7 | COc1ccccc1-c1ccc2c(c1)O[C@@H](CN(C)C(=O)Nc1ccccc1)[C@@H](C)CN([C@@H](C)CO)S2(=O)=O |
| i | -6 | -36 | 2.1 | CCC(=O)N1CCCCN2[C@H](CO)[C@@H](c3ccc(/C=C/c4ccccc4)cc3)[C@H]2C1 |
| i | 4 | 5 | -2.1 | O=C(C[C@H]1C[C@H]2c3cc(NC(=O)NC4CCCC4)ccc3O[C@H]2[C@H](CO)O1)NCc1cccnc1 |
| i | 5 | 14 | -5.7 | CN(C)C(=O)c1ccc(-c2ccc3c(c2)[C@H]2[C@H](CCN2Cc2cncnc2)[C@H](CO)N3)cc1 |
| i | 6 | 19 | 1.1 | O=C(Cc1ccc(NC(=O)C2CCCN(C(=O)c3ccccc3)C2)cc1)Nc1cccc(C(=O)N2CCCCC2)c1 (stereo not drawn) |
| i | 4 | 12 | -1.0 | COCC(=O)N(C)C[C@H]1Oc2ncc(C#C[C@H](C)O)cc2C(=O)N([C@H](C)CO)C[C@@H]1C |
| i | 1 | -3 | -1.4 | CCCNC(=O)N(C)C[C@H]1Oc2ncc(C#CC(C)C)cc2C(=O)N([C@@H](C)CO)C[C@@H]1C |
| i | 2 | -4 | -0.7 | C[C@@H]1CCCCO[C@H](CN(C)C(=O)NC2CCCCC2)[C@@H](C)CN([C@@H](C)CO)C(=O)c2cc(NC(=O)C3CCCCC3)ccc2O1 |
| i | 0 | 0 | 0.0 | C[C@H](CO)N1C[C@H](C)[C@H](CN(C)C)Oc2ccc(NC(=O)C3CC3)cc2CC1=O |
| i | 4 | 9 | 1.2 | C[C@H](CO)N1C[C@H](C)[C@@H](CN(C)C(=O)Nc2cccc3ccccc23)OCCCC[C@H](C)Oc2ccc(NC(=O)Nc3ccccc3)cc2C1=O |
| i | 1 | -1 | 1.1 | N#C[C@H]1[C@H](c2ccc(C#Cc3ccccc3F)cc2)[C@@H](CO)N1C(=O)C1CCCCC1 |
| i | 1 | 11 | -1.6 | Cc1noc(C)c1NC(=O)N(C)C[C@@H]1Oc2ccc(NC(=O)CCC(F)(F)F)cc2CC(=O)N([C@H](C)CO)C[C@@H]1C |
| i | -7 | -3 | 0.3 | COc1ccc(CN2[C@H](CO)[C@H]3c4ccccc4N(C(=O)CC(F)(F)F)C[C@H]32)cc1 |
| i | 4 | 1 | -2.5 | O=C(C[C@@H]1CC[C@H]2[C@@H](COC[C@@H](O)CN2C(=O)c2ccccn2)O1)NC1CCC1 |
| i | 2 | -5 | 1.2 | C[C@@H]1CN([C@@H](C)CO)C(=O)Cc2cc(NC(=O)Cc3ccccc3)ccc2O[C@@H]1CN(C)Cc1ccc(Oc2ccccc2)cc1 |
| i | 0 | 1 | -0.5 | CO[C@H]1CN(C)C(=O)c2ccc(NC(C)=O)cc2OC[C@H](C)N(CC2CC2)C[C@H]1C |
| i | -1 | -11 | 2.2 | C[C@H]1CN([C@@H](C)CO)C(=O)Cc2cc(NC(=O)Nc3ccc4c(c3)OCO4)ccc2O[C@H]1CN(C)C(=O)Nc1ccc(F)cc1 |
| i | 3 | 12 | 0.2 | C[C@@H]1CN([C@H](C)CO)C(=O)Cc2cc(NC(=O)CCN3CCOCC3)ccc2O[C@@H]1CN(C)C |
| i | 4 | 2 | -1.9 | CC(=O)N1[C@@H]2c3ccc(-c4cccc(F)c4)c(=O)n3C[C@@H]2[C@@H](CO)[C@@H]1C(=O)NCC1CC1 |
| i | 1 | 13 | 0.1 | COc1ccc2c3c(n(C)c2c1)[C@@H](CO)N(C(=O)C1CCC1)CC31CCN(C(=O)CN(C)C)CC1 |

Ordered by formula weight (smallest number first): 10 of the compounds above.
| FGF22 binding | rRNA inh HTS | rRNA inh HTS OD600 | rRNA inh HTS RFP | structure |
| --- | --- | --- | --- | --- |
| i | 3 | 8 | 0.2 | CC(C)NC(=O)N[C@H]1CC[C@H](CCNC(=O)C2CCCC2)O[C@@H]1CO |
| i | 4 | 6 | -1.8 | OC[C@@H]1[C@@H](c2ccccc2)C2(CN(CCC(F)(F)F)C2)N1Cc1cccnc1 |
| i | -2 | 0 | -2.3 | CCOC(=O)C1=CCN(S(=O)(=O)c2ccc([N+](=O)[O-])cc2)C1c1ccc(C)cc1 (stereo not drawn) |
| i | -1 | 2 | -0.6 | COc1ccccc1S(=O)(=O)N[C@@H]1CC[C@H](CCNC(=O)C2CCCC2)O[C@@H]1CO |
| i | -1 | 1 | -2.2 | C[C@H](CO)N1C[C@H](C)[C@@H](CN(C)Cc2cccc(C(=O)O)c2)OCc2cn(nn2)CCCC1=O |
| i | 4 | 5 | -2.1 | O=C(C[C@H]1C[C@H]2c3cc(NC(=O)NC4CCCC4)ccc3O[C@H]2[C@H](CO)O1)NCc1cccnc1 |
| i | 6 | 2 | -1.2 | CN(C)CCCNC(=O)C[C@H]1CC[C@@H]2[C@H](COc3ccc(NC(=O)c4ccccc4F)cc3C(=O)N2C)O1 |
| i | -8 | -5 | 0.7 | COc1ccccc1-c1ccc2c(c1)O[C@@H](CN(C)C(=O)Nc1ccccc1)[C@@H](C)CN([C@@H](C)CO)S2(=O)=O |
| i | 0 | 2 | -2.3 | Cc1ccc(S(=O)(=O)N(C)C[C@H]2Oc3c(NC(=O)c4cc(C)nn4C)cccc3C(=O)N([C@@H](C)CO)C[C@@H]2C)cc1 |
| i | 4 | 9 | 1.2 | C[C@H](CO)N1C[C@H](C)[C@@H](CN(C)C(=O)Nc2cccc3ccccc23)OCCCC[C@H](C)Oc2ccc(NC(=O)Nc3ccccc3)cc2C1=O |
